Vif A3G – inhibitors of Vif binding to APOBEC3G peptide, primary screen, biochemical, TR-FRET, GST-Vif 1-94, biotin-A3G peptide, dose response retest (AID 1117319) | TR-FRET GST-Vif / biotin-A3G peptide binding; higher % means a stronger effect; test concentration not given here; strong numbers were not always called active | one-dose inhibition, %; IC50 in µM for titrated hits | hit rate 0.57% among 260,000;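 active means above the screen mean plus three standard deviations and confirmed in dose response; inconclusive means results disagree or hit not tested in dose response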;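 further: Vif residues 1-94 fused to GST binding biotinylated APOBEC3G peptide 110-148; 0% = full assay without inhibitor and 100% = GST in place of GST-Vif; retest series ran down from 100 µM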
HNF4A DNA FP – change in binding of human HNF4 alpha to DNA. activity change, % at 10 µM. HNF4a-FITC DNA binding, fluorescence polarization, 1 h. hit rate 0.3% among 360,000; in the data active means activity change above about 30%, passing the limit was not always enough;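 further: controls were the assay level and a saturating level of protein; the project sought stronger binding though the title names inhibitors; some compounds called inactive have numbers as strong as hits; positive values seem to mean higher polarization but the record does not say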
Target sequence (P41235 whole entry, looked up): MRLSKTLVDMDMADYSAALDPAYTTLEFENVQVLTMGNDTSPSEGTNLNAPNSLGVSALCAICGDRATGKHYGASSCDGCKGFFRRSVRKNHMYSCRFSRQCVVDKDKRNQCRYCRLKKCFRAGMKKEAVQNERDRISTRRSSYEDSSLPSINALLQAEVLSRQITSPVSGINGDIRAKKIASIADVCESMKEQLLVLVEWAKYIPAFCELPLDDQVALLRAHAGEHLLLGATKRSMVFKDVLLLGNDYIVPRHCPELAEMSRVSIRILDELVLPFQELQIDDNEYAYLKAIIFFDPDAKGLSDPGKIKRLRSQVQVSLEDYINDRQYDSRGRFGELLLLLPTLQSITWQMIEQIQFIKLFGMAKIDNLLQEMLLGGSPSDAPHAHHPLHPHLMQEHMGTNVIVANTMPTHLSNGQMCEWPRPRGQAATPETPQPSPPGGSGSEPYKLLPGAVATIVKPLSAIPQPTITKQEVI
Ecoli growth – inhibitors of Escherichia coli growth; hit rate 0.21% among 330,000; OD600, 23 h; stronger effect = lower value; OD600 absorbance (no concentration beside the values);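 active means OD600 absorbance below the run mean of sample wells minus 3.6 SD, in any replicate, cut at about 0.56 in these data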;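 further: stock transfer was 300 nL into about 60 µL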
MLL AF4-AF9 inh – inhibitors of human MLL-AF4/AF9 interaction. hit rate 0.47% among 350,000. P42568. AlphaScreen, biotin-AF4 peptide binding to FLAG-AF9. inhibition, % at 10 µM;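 active means every replicate reaching a set inhibition limit, whatever the replicate mean, cut at about 25% in these data; inconclusive means mean inhibition reaches that limit but some replicates miss it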;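 further: 0% = plate neutral control median and 100% = total signal loss; the record names both 10 and 1 µM as test concentration; the first replicate is given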
Target sequence (P42568 whole entry, looked up): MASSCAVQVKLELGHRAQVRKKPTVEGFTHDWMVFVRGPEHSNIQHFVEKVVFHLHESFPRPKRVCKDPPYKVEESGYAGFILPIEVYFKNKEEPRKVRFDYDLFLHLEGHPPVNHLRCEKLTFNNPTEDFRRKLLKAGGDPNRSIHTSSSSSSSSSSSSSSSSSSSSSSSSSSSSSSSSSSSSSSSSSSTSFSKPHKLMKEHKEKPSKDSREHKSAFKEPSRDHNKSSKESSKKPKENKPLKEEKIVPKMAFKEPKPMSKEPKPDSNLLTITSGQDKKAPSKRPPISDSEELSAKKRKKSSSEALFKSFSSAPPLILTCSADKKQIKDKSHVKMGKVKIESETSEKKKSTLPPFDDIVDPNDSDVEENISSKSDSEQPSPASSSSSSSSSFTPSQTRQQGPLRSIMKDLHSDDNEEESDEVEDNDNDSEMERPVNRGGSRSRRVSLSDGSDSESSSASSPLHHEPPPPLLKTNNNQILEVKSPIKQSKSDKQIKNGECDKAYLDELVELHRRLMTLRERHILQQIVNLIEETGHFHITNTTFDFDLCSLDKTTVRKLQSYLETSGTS
FGF22 binding – shifts melting point of recombinant human FGF22; Q9HCT0; recombinant FGF22 thermal shift, SYPRO orange fluorescence; percent of sucrose octasulfate shift, DMSO zero; calls only at 9.99 µM; hit rate 1.5% among 340,000;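 active means melting point raised past a set limit in the mean and every replicate; inconclusive means no clear call; three in four hits are not shown here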
RanGTP-Impb inh – inhibitors of RanGTP-importin-beta interaction, primary screen, biochemical, FRET, CFP-Ran, YFP-importin-beta, homogeneous | cell-free CFP-Ran/YFP-importin-beta FRET ratio | inhibition, % (no concentration beside the values) | hit rate 1.1% among 300,000 | AID 2216;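 active means most replicates above 15%; inconclusive means exactly half above 15%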;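 further: 0% = DMSO wells and 100% = Ran loaded with GDP instead of GTP; wells of about 40 µL received 100 nL stock; the first replicate is given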
UCH37 DUB inh – blocks the human deubiquitinase UCH37 | hit rate 0.33% among 330,000 | AID 588478 | purified proteasome/UCH37, Ub-AMC cleavage fluorescence | Q9Y5K5 | inhibition, % (test concentration not listed);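 active means mean of two replicates above 20%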;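 further: 0% = compound-free wells with enzyme and 100% = wells lacking proteasome; stock transfer was 100 nL into about 20 µL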
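Material: human UCH37 enzyme supplied as purified proteasome complex. Measure: % inhibition of Ub-AMC cleavage fluorescence. Medium: pH 7.4 Tris-HCl (50 mM) with ovalbumin, ATP-MgCl2, DTT. Times: 30 min preincubation with enzyme, 25 min cleavage at room temperature. Detection: AMC fluorescence intensity at 355/460 nm.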
Numbers without * were called inactive; i = inactive; ? = inconclusive; / = not tested or not shown; & = joins results of further samples. Only part of the results is shown (hit frequency here may not be typical).

SMILES	Vif A3G	HNF4A DNA FP	Ecoli growth	MLL AF4-AF9 inh	FGF22 binding	RanGTP-Impb inh	UCH37 DUB inh
COc1ccc(C(=O)N2CCOC2CNC(=O)C(=O)NCc2ccccc2)cc1 (stereo not drawn)	-5.5%	2.0	/	-0.6	i	/	/
CCOc1ccc(-c2c(C(=O)N/N=C/c3ccc(O)cc3)nnn2-c2nonc2N)cc1	13.1%	-0.2	/	-0.4	i	0.7	/
COCCNC(=O)c1ccc2c(c1)nc(C)n2-c1cccc(Cl)c1	-7.0%	2.5	0.66	-1.4	i	-2.8	0.1
O=C(Nc1ccc2c(c1)CCC2)c1cccc(F)c1	2.4%	-22.2	0.625	-13.9	i	6.4	3.6
CCCN1CCC(NC(=O)Nc2ccc([N+](=O)[O-])cc2)CC1	-3.1%	5.3	0.675	1.5	i	0.8	2.9
NC(=S)Nc1cc(Cl)ccc1Cl	/	3.8	0.685	-2.1	i	7.5	0.7
O=C(Nc1c(Br)cc2c(c1Br)Cc1cc([N+](=O)[O-])ccc1-2)C(Cl)Cl	-131.1%	-3.5	/	0.3	i	/	/
C/C(=N\O)C(C)(C)Nc1ccccc1F	-0.2%	3.4	/	-0.2	i	-4.7	/
COc1ccccc1NC(=O)Cc1csc(NC(=O)c2ccccc2)n1	-22.0%	-1.4	0.683	0.9	i	-1.4	4.9
O=C(Cn1nc(C(F)F)cc1C(F)F)NNC(=S)Nc1ccc([N+](=O)[O-])cc1	0.9%	-2.7	0.64	5.6	/	?	7.9
Cc1cc2cc(CN(Cc3ccc4c(c3)OCO4)C(=O)c3cnccn3)c3nnnn3c2cc1C	5.6%	-3.1	0.689	/	/	4.8	-1.4
CSC1=C(C#N)C(c2ccncc2)C(C(=O)Nc2ccccc2)=C(C)N1 (stereo not drawn)	/	-1.9	0.698	-0.8	i	-2.2	3.6
Cc1csc(N/N=C/c2ccccn2)n1	24.8%	-0.2	/	6.9	/	?	/
CN(C)C(=O)c1cc(C(=O)c2ccccc2C(F)(F)F)c[nH]1	/	0.8	0.658	-2.9	i	-0.3	1.8
Cc1cc(C)c2oc(=O)cc(CN3CCCCC3)c2c1	-5.9%	-1.6	0.678	-15.8	i	6.6	0.3
O=C(CN1CCN(C(=O)C2CCCO2)CC1)Nc1ccc(Cl)c(Cl)c1 (stereo not drawn)	/	1.4	0.72	-0.3	i	/	3.6
Cc1cc(C)c(NC(=O)CNC(=O)COC(=O)/C=C/c2cccs2)c(C)c1	0.3%	-1.3	0.662	-0.5	i	-1.7	6.4
Cn1c(-c2cccs2)[n+](C)c2ccccc21	6.3%	-1.7	0.682	0.9	i	7.9	3.8
COc1cc2ccccc2cc1C(=O)N1CCN(C(C)=O)CC1	/	-0.3	0.698	-0.7	i	0.6	-9.5
Cc1nc(SCC(=O)c2c(N)n(C3CC3)c(=O)[nH]c2=O)[nH]c(=O)c1CCO	0.3%	-2.1	0.706	-1.3	i	/	4.8
CCN(CC)CCN(C(=O)c1ccc2ncsc2c1)c1nc2cc3c(cc2s1)OCO3	0.6%	0.3	0.69	4.8	i	3.8	1.9
CN(Cc1ccccc1)C(=O)c1[nH]cnc1C(=O)Nc1ccc(Br)cc1F	9.0%	1.5	/	-10.4	i	/	/
CCOC(=O)C(C)Sc1ncc(-c2ccccc2)cn1 (stereo not drawn)	-3.9%	-1.1	0.673	-2.8	i	-0.9	2.9
CCCC(=O)Nc1nnc(CC(=O)N2CCCC2)s1	?	1.6	0.661	/	/	1.3	0.4
CCc1ccc(C2C(C#N)=C(N)N(N3CCOCC3)C3=C2C(=O)CC(C)(C)C3)s1 (stereo not drawn)	3.7%	3.8	0.683	0.0	i	0.6	2.7
O=C1OC(c2ccccc2)=C/C1=C/c1cccs1	6.1%	2.6	0.727	-13.7	i	5.4	-1.7
Cn1c(SCc2cccc([N+](=O)[O-])c2)nc2ccccc2c1=O	3.2%	-0.5	0.709	0.8	i	/	3.3
COc1ccc(OC)c(N(CC(=O)Nc2cccnc2)S(=O)(=O)c2ccc(OC)c(OC)c2)c1	5.7%&-5.2%	-1.1	0.774	/	/	2.6	0.7
Cc1ccc(S(=O)(=O)N2CCCCC2)cc1NC(=O)C1CCC1	-5.4%	2.5	0.66	3.8	i	/	2.2
CCOc1ccc(S(=O)(=O)N2CCCC(C(=O)NCc3cccnc3)C2)cc1 (stereo not drawn)	2.1%	0.3	0.682	-0.9	i	3.4	-1.3
OC(CNCc1ccccc1)(c1ccccc1)c1ccccc1	1.4%	-7.5	0.64	-25.1	i	2.7	1.8
O=C(CC1CCCCC1)NCc1ccccc1	/	1.4	0.674	-6.6	i	-1.1	0.7
CCn1c(C)nc2cc(C(=O)NN=C(C)c3ccc(C#N)cc3)ccc21	17.0%	-0.2	0.64	-1.6	i	/	1.1
CCCCS(=O)CC(COC)OC(=O)c1ccccc1 (stereo not drawn)	-6.4%	4.3	0.697	-0.7	i	-0.8	4.8
O=C(c1cc(-c2cccnc2)nc2ccccc12)N1CCN(S(=O)(=O)c2cccs2)CC1	/	-3.4	0.703	-7.5	i	/	5.6
CCNNC(=O)C(O)(c1cccc(C)c1)c1cccc(C)c1	13.6%	-3.9	0.715	/	/	5.9	2.2
O=C(COc1cccc2ccccc12)NNC(=O)c1cnccn1	4.0%	1.5	0.678	3.5	i	1.5	2.0
CCN=c1scc(-c2ccc3c(c2)NC(=O)CO3)n1N=C1CCCC1	-1.6%&19.0%	23.5&9.4	0.627&0.718	13.4	i	-1.7	3.7&-2.0
CC1=CC(C)=Nc2ccc(C)cc2N1	-1.9%&8.4%	-1.3&0.1	0.708&0.752	/	/	?	1.0&2.0
O=C1CC(N2CCC(c3nc4ccccc4o3)CC2)C(=O)N1c1ccc(Cl)c(C(F)(F)F)c1 (stereo not drawn)	?	6.0	0.7	/	/	0.5	-0.3

A portion from further up, for reference:
SMILES	Vif A3G	HNF4A DNA FP	Ecoli growth	MLL AF4-AF9 inh	FGF22 binding	RanGTP-Impb inh	UCH37 DUB inh
COc1ccc(C(=O)N2CCOC2CNC(=O)C(=O)NCc2ccccc2)cc1 (stereo not drawn)	-5.5%	2.0	/	-0.6	i	/	/
CCOc1ccc(-c2c(C(=O)N/N=C/c3ccc(O)cc3)nnn2-c2nonc2N)cc1	13.1%	-0.2	/	-0.4	i	0.7	/

Next section:
SMILES	Vif A3G	HNF4A DNA FP	Ecoli growth	MLL AF4-AF9 inh	FGF22 binding	RanGTP-Impb inh	UCH37 DUB inh
COc1ccc(-n2nc(C(=O)NCC(=O)N3CCN(C)CC3)c3ccccc3c2=O)cc1OC	4.9%	-1.0	0.719	/	/	5.0	4.2
O=C(Nc1cccc(-c2cn3ccccc3n2)c1)c1ccccc1	17.9%	-4.0	0.674	-1.7	/	2.6	1.3
CCC1(CC)C(=O)NN(c2ccccc2)C1=O	4.5%	0.0	0.682	/	/	-1.0	3.8
CC1CCCN(C(=O)c2ccc(NS(=O)(=O)c3cccc([N+](=O)[O-])c3)cc2)C1 (stereo not drawn)	1.9%	1.1	0.707	-11.8	i	?	-1.6
Cc1ccc(Cn2cnc3sc4c(c3c2=O)CCC4)c(C)c1	6.9%	-5.7	0.727	/	/	0.9	0.9
O=c1[nH]c2ccccc2c(=O)n1Cc1ccco1	-7.2%	-1.3	0.671	/	/	4.3	21.3*
O=C(C1CC1)N1N=C(c2cccc(Br)c2)CC1(O)C(F)(F)F (stereo not drawn)	-4.2%	1.8	0.637	4.9	i	-1.8	2.4
Cc1ccccc1C(=O)c1cccn1CC(=O)NC1CCCC(C)C1C (stereo not drawn)	6.3%	-0.2	0.686	1.6	i	3.5	3.2
CC(=O)NS(=O)(=O)c1ccc(NC(=O)c2cc3c(=O)n4ccccc4nc3s2)cc1	8.2%	0.4	0.687	1.9	i	1.8	-137.2
COc1ccc(NS(=O)(=O)c2csc(C(=O)N3CCCC3)c2)cc1	/	2.3	0.683	-14.5	i	5.5	1.0
O=C(Nc1cccc(S(=O)(=O)N2CCCCCC2)c1)C1=COCCO1	4.5%	-8.1	0.713	-11.5	i	-0.7	2.9
CC1CCCN(C(=O)Cn2nnc(-c3ccc([N+](=O)[O-])cc3)n2)C1 (stereo not drawn)	23.5%	-0.8	/	-0.6	i	0.9	/
CCN(CC)S(=O)(=O)c1ccc(SCC(=O)c2c(N)n(C3CC3)c(=O)[nH]c2=O)nc1	/	0.7	/	-1.7	i	/	/
CCCOc1ccc2c(CC)cc(=O)oc2c1C	/	-1.3	0.664	/	/	1.0	-46.6
Cc1ccccc1NS(=O)(=O)c1cccc2nonc12	5.8%	10.4	0.69	0.9	i	-1.2	5.0
CCOC(=O)C1(C)CCCN1C(=O)c1csnn1 (stereo not drawn)	/	-0.8	/	-3.5	i	/	/
O=C1c2ccccc2C(Nc2ccc(Cl)cn2)N1c1ccccn1 (stereo not drawn)	22.0%	0.0	0.804	10.1	i	1.7	4.0
Cc1ccc(NC(=O)C2CCN(S(=O)(=O)c3cccc4nonc34)CC2)nc1	-6.0%&22.9%	0.5	0.696	/	/	1.4	0.8
Cc1ccc(S(=O)(=O)N(CC(=O)N2CCc3ccccc3C2)c2cccc(Cl)c2)cc1	-10.5%	-2.8	0.818	/	/	1.6	3.0
Cc1ccc(SCCC(=O)N2CCOCC2)cc1	5.7%	-2.5	0.638	6.3	i	-2.6	0.5
O=C(O)Cn1cnc2c(oc3ccccc32)c1=O	-4.0%	2.3	0.649	-0.3	i	-0.8	-0.1
CCCCN(CC)CCNC(=O)c1cn(CCOC)c(=O)c2c1c1ccccc1n2C	0.2%	6.8	0.687	-3.9	i	-0.9	-118.9
CN1C(=O)N(CC(=O)Nc2cccc(S(=O)(=O)N(C)c3ccccc3)c2)C(=O)C12CCCCC2	6.6%	4.1	0.62	7.0	i	/	0.6
CC12CC(NC(=O)N1c1cccc(C(=O)N3CCN(c4ccccn4)CC3)c1)c1ccccc1O2 (stereo not drawn)	24.6%	5.5	0.692	/	/	-4.0	0.6
CCOC(=O)N1CCC(NC(=O)c2cc(S(=O)(=O)N3CCc4ccccc43)cn2C)CC1	-4.6%	-2.4	0.69	/	/	-4.1	4.6
CC(=O)CCc1oc2ccc([N+](=O)[O-])cc2c1-c1ccc(C)o1	4.1%	1.4	0.682	0.2	i	2.9	6.9
CN(c1ccc(C(=O)Nc2ccc(S(=O)(=O)N3CCCC3)cc2)cc1)S(C)(=O)=O	12.2%	1.9	0.681	-0.2	i	-4.7	1.4
CN(C)CCCNC(=O)C(=O)Nc1cc2c3c(c1)CCC(=O)N3CCC2	10.3%	1.3	0.66	-6.8	i	-0.1	3.2
CSCCC(NC(=O)c1ccc(Cl)cc1)C(=O)NC(C)(C)C (stereo not drawn)	0.9%	-1.8	0.71	/	/	2.7	2.7
COc1ccc(S(=O)(=O)N2CCC3CC2c2cc(N4CCOCC4)ccc23)cc1 (stereo not drawn)	-6.6%	3.5	/	1.8	i	/	/
CC(C)(C)c1ccc(-c2nc(N)nc(N)n2)cc1	12.0%	-2.5	0.698	0.0	i	-1.9	0.5
COc1ccc(OC)c(N2C(=O)C(Cl)=C(N3CCOCC3)C2=O)c1	19.1%	2.4	0.605	/	/	0.8	5.1
CC(=O)c1cccc(S(=O)(=O)Nc2cc(C(F)(F)F)ccc2N2CCOCC2)c1	-0.7%	-0.2	0.644	?	i	/	2.6
COc1cccc(NC(=O)c2oc3ccccc3c2NC(=O)C(C)(C)C)c1	22.0%	-2.6	0.677	/	/	-1.7	-10.4
Cc1ccc(OCc2ccc(C(=O)Nc3c(C)nn(Cc4c(F)c(F)c(F)c(F)c4F)c3C)o2)c([N+](=O)[O-])c1	-1.9%	3.7	0.668	/	/	?	3.8
COCCNC(=O)c1onc(CSc2ccc(Cl)cc2)c1C(=O)O	4.3%	-1.2	0.663	-18.2	i	1.0	1.8
